# AF4-AF9 inh: MLL-AF4/AF9 protein interaction inhibition; inhibition, % at 10 µM; AID 651704; 350,000 compounds, 0.47% hits; P42568; AlphaScreen, biotin-AF4 peptide binding to FLAG-AF9;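 active means every replicate reaching a set inhibition limit, whatever the replicate mean, cut at about 25% in these data; inconclusive means mean inhibition reaches that limit but some replicates miss it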;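 further: 0% = plate neutral control median and 100% = total signal loss; the record names both 10 and 1 µM as test concentration; the first replicate is given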
# Target sequence (P42568 whole entry, looked up): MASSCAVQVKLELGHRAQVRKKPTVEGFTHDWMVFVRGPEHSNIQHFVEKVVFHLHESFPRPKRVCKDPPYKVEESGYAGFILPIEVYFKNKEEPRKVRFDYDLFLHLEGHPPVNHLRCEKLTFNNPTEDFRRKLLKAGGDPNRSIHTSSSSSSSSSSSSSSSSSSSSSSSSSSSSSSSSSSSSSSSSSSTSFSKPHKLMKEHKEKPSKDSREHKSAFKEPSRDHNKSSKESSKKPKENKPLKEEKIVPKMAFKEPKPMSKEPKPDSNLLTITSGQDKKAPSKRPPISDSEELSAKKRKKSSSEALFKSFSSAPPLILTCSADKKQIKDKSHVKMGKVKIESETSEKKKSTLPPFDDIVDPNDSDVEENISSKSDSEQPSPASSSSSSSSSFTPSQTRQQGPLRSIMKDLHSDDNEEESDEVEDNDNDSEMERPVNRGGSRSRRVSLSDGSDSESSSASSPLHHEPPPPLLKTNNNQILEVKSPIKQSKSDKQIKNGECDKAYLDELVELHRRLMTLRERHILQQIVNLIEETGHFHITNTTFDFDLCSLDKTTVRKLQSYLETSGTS
# Numbers without * were called inactive; ? = inconclusive. This is a subset, so the mix of outcomes need not match the whole.
no.	Compound	AF4-AF9 inh
1	CNC(=O)C[C@H]1CC[C@H]2[C@H](COc3ccc(NC(=O)Nc4ccc(F)cc4)cc3C(=O)N2C)O1	0.8
2	CCCNC(=O)[C@H]1[C@H](CO)[C@H]2Cn3c(ccc(-c4ccccc4)c3=O)[C@H]2N1C(=O)c1ccccc1F	-1.1
3	COc1ccc(S(=O)(=O)N(C)C[C@H]2OCCCC[C@@H](C)Oc3ccc(NS(=O)(=O)c4ccc(Cl)cc4)cc3C(=O)N([C@H](C)CO)C[C@H]2C)cc1	0.0
4	C[C@H]1CN([C@@H](C)CO)C(=O)Cc2cc(NS(=O)(=O)c3cn(C)cn3)ccc2O[C@H]1CN(C)C(=O)Nc1cccc2ccccc12	-15
5	CCC(=O)N(C)C[C@@H]1Oc2cc(-c3ccc(C)cc3)ccc2S(=O)(=O)N([C@H](C)CO)C[C@H]1C	1.1
6	COCC#Cc1ccc([C@H]2[C@@H](CO)N3CCCCN(C(=O)COC)C[C@@H]23)cc1	-6.2
7	O=C(C[C@@H]1CC[C@H](NC(=O)C2CCC2)[C@@H](CO)O1)NCc1ccncc1	-1.5
8	CCc1nc2ccc(C(=O)Nc3cc(-c4ccccc4)ccc3OC)cn2c1N(CC)CC(=O)N(C)C	2.7
9	COc1ccc(NC(=O)N(C)C[C@H]2OCCCC[C@@H](C)Oc3ccc(NS(=O)(=O)c4cn(C)cn4)cc3C(=O)N([C@@H](C)CO)C[C@@H]2C)cc1	-1.7
10	COc1ccc(NC(=O)N(C)C[C@@H]2Oc3ccc(NC(=O)CCCCCC(=O)Nc4ccccc4N)cc3CC(=O)N([C@H](C)CO)C[C@@H]2C)cc1	0.0
11	C[C@@H]1CN([C@H](C)CO)C(=O)c2cccc(NC(=O)C3CCCCC3)c2O[C@@H]1CN(C)C(=O)Nc1ccccc1	2.1
12	C[C@H]1CN([C@@H](C)CO)C(=O)c2cc(NC(=O)Nc3cccc4ccccc34)ccc2O[C@H]1CN(C)Cc1ccncc1	0.9
13	O=S(=O)(Nc1ccc(C(O)(C(F)(F)F)C(F)(F)F)cc1)c1cccc2ccccc12	-0.5
14	C[C@@H]1CN([C@@H](C)CO)C(=O)c2cc(NC(=O)CCC(F)(F)F)ccc2O[C@@H]1CN(C)C(=O)Nc1ccc(F)cc1	0.1
15	C/C=C/c1ccc2c(c1)O[C@@H](CN(C)Cc1ccccn1)[C@@H](C)CN([C@@H](C)CO)S2(=O)=O	-0.5

# Along the list, as entered above.
# AF4-AF9 inh, compounds 2–8: -1.1, 0.0, -15, 1.1, -6.2, -1.5, 2.7

# The results go on:
no.	Compound	AF4-AF9 inh
16	CC(C)NC(=O)N(C)C[C@@H]1Oc2ccc(NS(=O)(=O)c3cn(C)cn3)cc2C(=O)N([C@@H](C)CO)C[C@H]1C	-1.0
17	O=C(Nc1ccc2c(c1)[C@@H]1C[C@H](CC(=O)N3CCc4ccccc4C3)O[C@@H](CO)[C@@H]1O2)Nc1ccccc1F	-4.6
18	Cc1noc(C)c1NC(=O)Nc1ccc2c(c1)C(=O)N([C@@H](C)CO)C[C@@H](C)[C@H](CN(C)C(=O)C1CCCCC1)OCCCC[C@@H](C)O2	4.1
19	COc1cccc(-c2ccc([C@@H]3[C@@H](CO)N4CCCCN(CC5CCOCC5)C[C@@H]34)cc2)c1	5.8
20	Cc1noc(C)c1NC(=O)N[C@@H]1CC[C@@H](CC(=O)Nc2ccc(-c3ccccc3)cc2)O[C@H]1CO	-24
21	CC(C)NC(=O)N1CCCCN2[C@H](C1)[C@@H](c1ccc(C#Cc3ccccc3)cc1)[C@@H]2CO	-12
22	COc1cccc(C#Cc2cnc3c(c2)C(=O)N([C@H](C)CO)C[C@H](C)[C@@H](CN(C)C(=O)C2CCCCC2)O3)c1	1.4
23	O=C(CCN1CCCCC1)NCC[C@H]1CC[C@H](NC(=O)Cc2cccnc2)[C@H](CO)O1	13
24	CCC(=O)N1C[C@@H](C)[C@@H](OC)CN(C)C(=O)c2ccc(NC(=O)Nc3ccccc3)cc2OC[C@H]1C	2.9
25	Cc1ccc(S(=O)(=O)Nc2ccc3c(c2)C(=O)N([C@H](C)CO)C[C@H](C)[C@H](CN(C)C(=O)Nc2ccc(C(F)(F)F)cc2)OCCCC[C@H](C)O3)cc1	-5.8
26	C[C@]12c3[nH]c4cc(-c5ccco5)ccc4c3CCN1C(=O)[C@@H](CC(=O)NCCN1CCOCC1)C[C@@H]2C(=O)N1CCCCC1	15
27	CCC(CC)C(=O)N(C)c1c(C)nc2c(OCc3cc(Cl)cc(Cl)c3)cccn12	5.8
28	CCCNC(=O)N1CC2(C1)[C@H](c1ccccc1)[C@@H](CO)N2C(=O)C1CCCC1	-1.8
29	CN1C(=O)c2cc(NC(=O)c3cnccn3)ccc2OC[C@H]2O[C@@H](CC(=O)Nc3cc(F)ccc3F)CC[C@@H]21	-1.2
30	N#Cc1ccc(-c2ccc3c(c2)[C@H]2[C@H](CCN2C(=O)C2CCC2)[C@@H](CO)N3)cc1	-26
31	CCC(=O)N(C)C[C@@H]1Oc2cc(-c3cccc(F)c3)ccc2S(=O)(=O)N([C@H](C)CO)C[C@@H]1C	2.3
32	CC[C@]12C(=O)N(C)C[C@H]([C@@H]3C(=O)N(Cc4ccccc4)C(=O)[C@@H]31)N2C(=O)c1ccccc1	-28
33	CC(C)(C)c1ccc(C(O)c2ncc(-c3ccccc3Cl)[nH]2)cc1 (centres undefined)	1.1
34	COc1cccc(CN(C)S(=O)(=O)c2ccccc2Br)c1	1.0
35	CC(C)NC(=O)NCC[C@H]1CC[C@@H](NC(=O)CCN2CCCCC2)[C@@H](CO)O1	1.9
36	O=C1CCCn2cc(nn2)COC[C@@H](c2ccccc2)N1	?
37	CCCNC(=O)c1cc(C2CCCCN2C(=O)c2ccc(NC(C)=O)cc2)on1 (centres undefined)	0.2
38	COc1cc(/C=C/C(=O)O[C@H]2[C@H](O[C@@H]3O[C@@H](C)[C@H](O)[C@@H](O)[C@H]3O)[C@@H](O)[C@H](OCCc3ccc(O)c(OC)c3)O[C@@H]2CO)ccc1O	0.1
39	O=C1C=CC(=O)c2c(O)c(N3CCN(CCOCCO)CC3)c(Br)c(O)c21	19
40	Cc1ccc(Cn2cc(CN(C)C3CN(Cc4cn(Cc5ccc(C)cc5)nn4)S(=O)(=O)C3)nn2)cc1 (centres undefined)	-0.5
41	C[C@@H]1CN([C@@H](C)CO)C(=O)c2ccccc2-c2ccccc2CO[C@H]1CN(C)C(=O)[C@H](C)c1ccccc1	2.1
42	CCCC(O)C#Cc1cnc2c(c1)C(=O)N([C@H](C)CO)C[C@H](C)[C@H](CN(C)S(=O)(=O)c1cn(C)cn1)O2 (some centres undefined)	-1.3
43	C[C@@H]1CCCCO[C@H](CN(C)Cc2ccc(C(F)(F)F)cc2)[C@@H](C)CN([C@H](C)CO)C(=O)c2cc(NS(=O)(=O)c3ccc(F)cc3)ccc2O1	-1.4
44	O=C([C@H]1[C@H](CO)[C@H]2Cn3c(cccc3=O)[C@@H]1N2Cc1ccccc1)N1CCCCC1	-0.2
45	CC=Cc1ccc2n(c1=O)C[C@@H]1[C@@H](CO)[C@H](C(=O)NCCC)[C@H]2N1Cc1ccccc1OC (mixture of isomers)	-2.8

# Fetched by structure from the entries so far:
no.	Compound	AF4-AF9 inh
40	Cc1ccc(Cn2cc(CN(C)C3CN(Cc4cn(Cc5ccc(C)cc5)nn4)S(=O)(=O)C3)nn2)cc1 (centres undefined)	-0.5
35	CC(C)NC(=O)NCC[C@H]1CC[C@@H](NC(=O)CCN2CCCCC2)[C@@H](CO)O1	1.9
41	C[C@@H]1CN([C@@H](C)CO)C(=O)c2ccccc2-c2ccccc2CO[C@H]1CN(C)C(=O)[C@H](C)c1ccccc1	2.1
31	CCC(=O)N(C)C[C@@H]1Oc2cc(-c3cccc(F)c3)ccc2S(=O)(=O)N([C@H](C)CO)C[C@@H]1C	2.3
44	O=C([C@H]1[C@H](CO)[C@H]2Cn3c(cccc3=O)[C@@H]1N2Cc1ccccc1)N1CCCCC1	-0.2

# The list continues.
no.	Compound	AF4-AF9 inh
46	COc1cc(Cl)c(CNC[C@H]2O[C@@H](n3cnc4c(N)ncnc43)[C@H](O)[C@@H]2O)c(Cl)c1O	-2.1
47	C[C@@H]1CN([C@@H](C)CO)C(=O)Cc2cc(NC(=O)Nc3ccccc3)ccc2O[C@@H]1CN(C)Cc1ccc(C(=O)Nc2ccccc2N)cc1	-0.7
48	CO[C@@H]1CN(C)C(=O)c2ccc(NS(=O)(=O)c3cn(C)cn3)cc2OC[C@H](C)N(CC2CC2)C[C@@H]1C	-1.3
49	COC(=O)C1CCN(C(=O)C2CC(=O)N(c3ccc(C)c(Cl)c3)C2)CC1 (centres undefined)	5.9
50	COc1ccc(CN(C)C[C@@H]2OCCCC[C@H](C)Oc3ccc(NC(=O)CCCN(C)C)cc3C(=O)N([C@H](C)CO)C[C@@H]2C)cc1	-0.9
51	O=C(c1ccccc1)N1Cc2ccccc2[C@@H]2OC(c3ccc(OCCCO)cc3)=N[C@]2(Cc2ccccc2)C1=O	5.2
52	CS(=O)(=O)Nc1ccc2c(c1)[C@H]1C[C@H](CC(=O)NCC3CC3)O[C@@H](CO)[C@H]1O2	-1.5
53	COc1ccc(CN(C)C(=O)[C@H]2O[C@@H](n3ccc(=O)[nH]c3=O)[C@H](O)[C@@H]2O)cc1OC	-0.4
54	CCCC(=O)Nc1ccc2c(c1)C(=O)N(C)[C@@H]1CC[C@H](CC(=O)N3CCCCC3)O[C@H]1CO2	-3.5
55	C[C@@H]1CN([C@H](C)CO)C(=O)c2cc(C3=CCCC3)cnc2O[C@H]1CN(C)C(=O)C1CCC1	-2.7
56	COCC(=O)Nc1ccc2c(c1)OC[C@@H](C)N(C(=O)c1ccccc1)C[C@@H](C)[C@@H](OC)CN(C)C2=O	-2.0
57	C[C@H]1CN([C@@H](C)CO)C(=O)c2cccc(NC(=O)Nc3ccc(C(F)(F)F)cc3)c2O[C@H]1CN(C)Cc1ccc(Cl)c(Cl)c1	0.4
58	C/C=C/c1cnc2c(c1)C(=O)N([C@@H](C)CO)C[C@H](C)[C@H](CN(C)C(=O)NCCC)O2	0.7
59	CO[C@@H]1CN(C)C(=O)c2cc(NC(=O)CN(C)C)ccc2OC[C@@H](C)N(C(=O)C2CC2)C[C@H]1C	1.9
60	C[C@@H]1CCCCO[C@@H](CN(C)C(=O)Nc2ccccc2)[C@H](C)CN([C@@H](C)CO)C(=O)c2cc(N(C)C)ccc2O1	-6.7
61	C[C@@H]1CN([C@@H](C)CO)C(=O)c2cccc(NC(=O)Nc3ccc(C(F)(F)F)cc3)c2O[C@@H]1CN(C)CC1CC1	1.3
62	CN1c2ccc(-c3ccc(C#N)cc3)cc2[C@H]2[C@H](CCN2S(=O)(=O)c2ccc(F)cc2)[C@@H]1CO	-0.4
63	CC(C)NC(=O)N(C)C[C@@H]1Oc2cc(-c3cncnc3)ccc2S(=O)(=O)N([C@H](C)CO)C[C@@H]1C	-0.1
64	CC=Cc1ccc2n(c1=O)C[C@H]1[C@H](CO)[C@@H](C(=O)NCc3ccccc3)N(Cc3cncnc3)[C@@H]21 (mixture of isomers)	0.3
65	COc1ccc(C#Cc2ccc3c(c2)[C@H]2[C@H](CCN2C(=O)C2CCC2)[C@H](CO)N3)cc1	10
66	Cc1ccc(S(=O)(=O)N(C)C[C@@H]2Oc3cc(-c4cccc(F)c4)ccc3S(=O)(=O)N([C@@H](C)CO)C[C@H]2C)cc1	-2.0
67	COCC(=O)N1CCCCN2[C@H](CO)[C@H](c3ccc(-c4ccccc4)cc3)[C@@H]2C1	-1.9
68	C[C@H](CO)N1C[C@H](C)[C@@H](CN(C)Cc2ccc(C(=O)O)cc2)Oc2ccc(NS(=O)(=O)c3cn(C)cn3)cc2CC1=O	-5.8
69	O=C(C[C@@H]1C[C@@H]2c3cc(NC(=O)NC4CCCC4)ccc3O[C@@H]2[C@H](CO)O1)NCc1ccc(Oc2ccccc2)cc1	0.0
70	COc1ccc(CN(C)C[C@H]2Oc3ccc(NC(=O)Nc4cccc5ccccc45)cc3C(=O)N([C@@H](C)CO)C[C@@H]2C)cc1	8.6
71	N#CCC(=O)Nc1ccc(C(=O)Nc2cccc(S(=O)(=O)N3CCCC3)c2)cc1	0.8
72	Cc1noc(C)c1S(=O)(=O)Nc1ccc2c(c1)CC(=O)N([C@H](C)CO)C[C@H](C)[C@H](CN(C)Cc1ccc(Cl)c(Cl)c1)O2	2.6
73	COc1ccc2c3c([nH]c2c1)[C@H](CO)N(Cc1nccs1)CC31CN(C(=O)C2CCOCC2)C1	-3.1
74	O=C(C[C@H]1CC[C@H]2[C@@H](COC[C@H](O)CN2Cc2ccccc2)O1)N[C@H]1CCN(Cc2ccccc2)C1	7.5
75	C[C@H](CO)N1C[C@H](C)[C@H](CN(C)C(=O)c2cnccn2)Oc2ncc(C#CCC3CCCC3)cc2C1=O	-4.2
76	Cc1noc(C)c1NC(=O)Nc1ccc2c(c1)C(=O)N([C@H](C)CO)C[C@H](C)[C@H](CN(C)S(=O)(=O)c1ccc(Cl)cc1)OCCCC[C@H](C)O2	2.5
77	O=C(NC[C@@H]1CC[C@@H]2[C@@H](CN2C(=O)C2CCOCC2)O1)Nc1ccccc1Cl	-0.4
78	C[C@@H]1CN([C@@H](C)CO)C(=O)Cc2cc(NC(=O)Nc3ccc4c(c3)OCO4)ccc2O[C@@H]1CN(C)Cc1ccc(Oc2ccccc2)cc1	2.0
79	O=C(NCc1ccncc1)c1csc([C@@H]2O[C@H](CO)[C@@H](O)[C@H]2O)n1	-3.9
80	C[C@H](CO)N1C[C@H](C)[C@@H](CN(C)Cc2ccccc2)OCCCC[C@H](C)Oc2ccc(NC(=O)CCCN(C)C)cc2C1=O	0.7
81	O=S(=O)(N[C@@H]1CC[C@@H](CCn2cc(-c3ccccn3)nn2)O[C@H]1CO)c1cccc(Cl)c1	0.6
82	C[C@@H](NC(=O)C[C@H]1CC[C@@H]2[C@H](COC[C@@H](O)CN2C)O1)c1ccccc1	-3.2
